rRNA inh HTS: inhibitors of bacterial rRNA selective over humanized ribosomes | 350,000 compounds, 1.6% hits | GFP signal change (wild-type ribosome), % (test concentration not listed) | AID 720706 | E. coli WT GFP vs humanized-ribosome RFP mutants, fluorescence, 24 h; active compounds read low; DMSO median 0, no signal -100;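 active means significant combined selectivity score with lowered wild-type GFP, culture density cut under 30%, mutant RFP and density less affected; inactive means any of these conditions unmet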; further: one replicate is shown; some compounds called inactive have numbers as strong as hits
LANA-H2A inh: blocks KSHV LANA binding to histone H2A/H2B; inhibition, % (concentration not given with the values); AID 2629; cell-free LANA-H2A/H2B peptide, fluorescence polarization; 320,000 compounds, 0.6% hits; in the data active means inhibition mostly above about 10%, no sharp cut-off; inactive means mostly below about 6.7%;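 further: stock transfer was 7.5 nL into about 10 µL; 0% = median of vehicle wells and 100% = median of positive control wells; one replicate is shown; the record names a cut of 25% in any replicate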
Target sequence (Q9QR71 whole entry, looked up): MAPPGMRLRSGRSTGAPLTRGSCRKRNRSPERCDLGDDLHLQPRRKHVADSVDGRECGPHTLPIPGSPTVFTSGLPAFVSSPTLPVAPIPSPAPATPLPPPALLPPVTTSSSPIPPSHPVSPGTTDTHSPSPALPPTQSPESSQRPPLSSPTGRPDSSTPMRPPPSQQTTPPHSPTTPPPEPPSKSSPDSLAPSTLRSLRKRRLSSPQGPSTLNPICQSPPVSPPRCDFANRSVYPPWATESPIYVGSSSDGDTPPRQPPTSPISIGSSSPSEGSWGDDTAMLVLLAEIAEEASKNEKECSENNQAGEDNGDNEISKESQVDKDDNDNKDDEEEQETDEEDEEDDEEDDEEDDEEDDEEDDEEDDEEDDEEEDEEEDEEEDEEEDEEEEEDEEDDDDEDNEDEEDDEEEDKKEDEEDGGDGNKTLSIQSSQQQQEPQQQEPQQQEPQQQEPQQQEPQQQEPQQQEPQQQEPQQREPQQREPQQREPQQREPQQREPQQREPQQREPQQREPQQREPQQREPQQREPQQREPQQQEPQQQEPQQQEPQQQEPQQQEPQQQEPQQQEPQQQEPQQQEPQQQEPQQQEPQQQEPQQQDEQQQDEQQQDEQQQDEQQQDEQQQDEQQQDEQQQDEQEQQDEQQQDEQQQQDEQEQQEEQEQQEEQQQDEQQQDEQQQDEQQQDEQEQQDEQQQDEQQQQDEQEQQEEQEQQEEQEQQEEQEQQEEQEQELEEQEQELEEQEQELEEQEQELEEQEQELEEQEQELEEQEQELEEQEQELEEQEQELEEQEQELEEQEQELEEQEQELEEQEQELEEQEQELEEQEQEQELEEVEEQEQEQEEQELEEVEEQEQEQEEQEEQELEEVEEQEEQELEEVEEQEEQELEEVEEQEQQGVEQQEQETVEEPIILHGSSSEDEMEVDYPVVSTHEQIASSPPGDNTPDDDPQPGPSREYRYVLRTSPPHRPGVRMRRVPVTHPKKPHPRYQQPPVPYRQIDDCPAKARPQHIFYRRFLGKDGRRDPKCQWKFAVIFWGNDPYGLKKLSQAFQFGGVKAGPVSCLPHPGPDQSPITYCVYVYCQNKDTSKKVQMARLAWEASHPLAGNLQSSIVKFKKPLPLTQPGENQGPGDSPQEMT
ALR inh: blocks human ALR sulfhydryl oxidase activity. AID 485317. purified ALR, DTT oxidation, H2O2 HRP-luminol luminescence. P55789. 290,000 compounds, 3.8% hits. inhibition, % (concentration not given with the values);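 active means mean and each replicate at 75% or more; inconclusive means only one of the two met; inactive means neither met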;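 further: stock transfer was 7.5 nL into about 7.5 µL; 0% = neutral wells and 100% = wells with inactivated enzyme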
Bfl-1 A1 inh: inhibitors of the anti-apoptotic protein A1, read as caspase activation; MEF A1-2A-BIM cells, Caspase-Glo 3/7 luminescence, 3 h; percent of clofoctol response, vehicle zero; caspase activation, % (no concentration beside the values); 330,000 compounds, 0.066% hits;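 active means over half of replicate activation scores above 10%, or exactly half above 10 with the replicate mean above 10; inconclusive means replicate mean below 10 yet half the replicates above 10; inactive means over half of replicates below 10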;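 further: wells of about 30 µL received 50 nL stock; many hits fall short of the cut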
T cruzi repl: T. cruzi replication inhibition. T. cruzi beta-gal in NIH3T3, luminescence, 90 h. AID 1885. inhibition, % (test concentration not listed). 300,000 compounds, 1.4% hits;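 active means mean inhibition across valid replicates above about 55%, limit read from the data; inconclusive means mean below that limit but half or more replicates reach it; inactive means mean below it, under half of replicates reach it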;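 further: signal also drops with host cell toxicity which is not excluded here; 0% = plate median of DMSO wells and 100% = zero luminescence signal; higher percent means less beta-gal luminescence so fewer parasites; stock transfer was 50 nL into about 50 µL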
B2AR ag: agonists of human beta-2 adrenergic receptor inducing internalization | P07550 | Am2.2-beta2AR cells, FAP receptor internalization, flow cytometry; reference of the scale not given here | response, % (no concentration beside the values) | 340,000 compounds, 0.43% hits | AID 504454;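 active means response above a set limit, near 3 SD of response in nonfluorescent compounds, cut at about 42% in these data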;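 further: stock transfer was 100 nL into about 11 µL; a reference agonist was the positive control; negative values mostly stem from fluorescent compounds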
Beta apoptosis: blocks beta cell apoptosis; INS-1E cytokine-induced death, ATP luminescence, 48 h; percent of positive-control rescue, neutral wells zero; protection from apoptosis, % (test concentration not listed); 300,000 compounds, 0.8% hits; AID 435005;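 active means all replicates at 75% or more, or half of them and the mean; inconclusive means half reach 75% but not the mean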;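 further: 0% = cytokine-treated negative control wells and 100% = positive control rescue; higher means more ATP so stronger rescue from cytokine killing; wells of about 40 µL received 100 nL stock; the first replicate is given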
Calb FLC: C. albicans growth modulation with fluconazole; C. albicans CaCi-2 (fluconazole-resistant clinical isolate) + fluconazole, Alamar Blue growth, 48 h; growth inhibition, % (no concentration beside the values); 300,000 compounds, 0.57% hits;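 active means most replicates above 75%; inconclusive means exactly half above 75%; inactive means most below 75%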;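 further: all wells also contain fluconazole at 8 µg/ml as a sub-toxic cotreatment; 0% = median of DMSO wells and 100% = median of geldanamycin control wells; wells of about 8 µL received 7.5 nL stock; the first replicate is given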
rRNA inh HTS OD600: further read-out of rRNA inh HTS, marked with its call; OD600 change, %; measured here: OD600 growth;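 optical density of the mix in the first replicate; 0 = DMSO median and -100 = no signal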
rRNA inh HTS RFP: second read-out of rRNA inh HTS, no call of its own (marks repeat the call); RFP signal change, %; measured here: RFP humanized mutant strains;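 first replicate; 0 = DMSO median and -100 = no signal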
Numbers without * were called inactive; u = inconclusive; x = no result given.

SMILES	rRNA inh HTS	rRNA inh HTS OD600	rRNA inh HTS RFP	LANA-H2A inh	ALR inh	Bfl-1 A1 inh	T cruzi repl	B2AR ag	Beta apoptosis	Calb FLC
Cc1ccccc1Cn1ccc(NC(=O)CCSc2nc(-c3ccco3)cc(C(F)(F)F)n2)n1	x	x	x	2.3	1.0	-0.3	-1.3	-3.9	-4.5	5.0
O=C(O/N=C1/CCCc2occc21)c1ccc(Cl)cc1Cl	7.3	10.7	4.1	1.0	-15.6	-0.5	-9.5	-2.2	-6.1	-2.5
Cn1c(=O)c2[nH]c(N3CCCCC3)nc2n(C)c1=O	7.3	5.6	-0.9	1.6	-4.0	-0.2	-1.5	7.0	-3.7	-6.5
CC(C)(C)c1ccc(C(=O)c2c[nH]c(C(=O)NCCCN3CCOCC3)c2)cc1	x	x	x	3.2	0.8	-0.2	-10.5	16.0	x	17.4
COc1ccccc1NC(=O)C1=C(C)NC(=O)NC1c1ccccc1F (configuration not stated)	4.1	6.1	-0.5	-0.3	-51.1	-0.6	x	3.9	-1.2	x
Cc1ccc(C(=O)Nc2ccc(N3CCCC3)cc2)cc1	15.9	20.8	0.6	-1.5	9.7	0.2	22.2	-2.5	1.7	9.2
O=C(Nc1nc(-c2nc3ccccc3s2)cs1)c1ccco1	4.1	14.3	3.6	2.7	4.9	-0.5	-11.7	-5.1	1.2	-16.7
NC(=O)C1CCN(C(=O)CSc2ccccn2)CC1	x	x	x	-2.0	-5.9	0.0	-15.7	-1.3	-7.6	-1.2
CSc1nc2sc3c(c2c(=O)[nH]1)CCCC3	x	x	x	-1.8	-7.9	0.6	-4.7	-1.3	1.3	34.7
CC(=O)NS(=O)(=O)c1ccc(N/C(N)=N/c2nc(C)cc(C)n2)cc1	18.1	14.0	-1.4	-0.2	1.1	-1.2	-5.1	-2.2	3.2	16.6
CC(C)(C)NC(=O)NC(=O)CN1CCN(S(=O)(=O)c2ccc3c(c2)OCCO3)CC1	-2.2	-17.9	-3.2	-5.7	x	-0.7	2.4	0.9	-0.5	-5.3
CCc1c(O)nc(SCC(N)=O)n(-c2ccccc2F)c1=O	x	x	x	0.6	-11.2	0.7	-6.7	-4.9	-15.1	-1.0
CCOC(=O)C(C)Sc1nnc(NC(=O)c2cccc([N+](=O)[O-])c2C)s1 (configuration not stated)	x	x	x	-1.6	-4.6	0.2	-8.2	5.0	1.2	-4.5
O=C(Nc1ccc2c(c1)OCO2)C1CC(c2ccccc2Cl)=NO1 (configuration not stated)	x	x	x	0.2	-10.1	0.2	-0.4	-11.0	-3.5	-12.9
CC(Oc1ccccc1)C(=O)N1CCCc2ccccc21 (configuration not stated)	x	x	x	-0.4	-1.5	0.6	-3.0	9.1	-7.0	15.9
C=CCOC(=O)COc1ccc2c(C)c(C)c(=O)oc2c1	x	x	x	1.7	-6.9	0.4	-11.4	2.2	-3.5	u
CCCC(CCC)c1nnc(NC(=O)c2ccco2)s1	-9.0	-9.0	-0.5	1.1	-0.6	0.1	-2.0	-0.2	1.7	22.8
CCOC(=O)Cc1nnc(NC(=O)c2ncn[nH]2)s1	x	x	x	1.3	2.4	0.3	-12.0	-2.9	-12.8	3.8
CN(C(=O)CCc1nnc(CCCCc2ccccc2)o1)C1CC(C)(C)NC(C)(C)C1	4.8	3.9	-5.2	-4.1	-0.1	-0.6	x	12.9	0.7	-3.7
Cc1ccc(N2NC(=O)/C(=C\c3cc4c(cc3[N+](=O)[O-])OCO4)C2=O)cc1C	x	x	x	4.7	94.0*	-0.2	7.4	13.3	3.0	1.9
CC1CC(C)CN(c2ccc(S(=O)(=O)N3CCOCC3)cc2)C1 (configuration not stated)	-4.0	-9.0	-1.6	-6.1	2.0	-1.0	22.1	0.0	1.8	x
Cc1ccc2c(C)c(C(=O)N(C)Cc3ccncn3)oc2c1C	0.8	3.4	1.6	-0.9	-0.7	-0.2	-7.0	-0.3	-15.5	2.9
CCCCN(C(=O)C1CC1)C1CCS(=O)(=O)C1 (configuration not stated)	7.3	6.0	-3.0	-1.1	-5.7	0.0	-3.5	0.0	-8.7	-2.9
CCCc1cc(=O)oc2c(C)c(OCC(=O)N3CCC(C(=O)O)CC3)ccc12	-5.2	-9.3	-3.1	-1.1	-11.5	0.0	-9.7	-14.1	x	-3.2
O=C(COC(=O)CN1C(=O)COc2ccccc21)NC1CCCCC1	7.5	1.1	0.9	-0.9	-18.0	0.0	-1.7	-2.4	x	-2.6
CC(=O)Nc1ccc(-c2cc(-c3ccccc3)nc(-c3ccccc3)n2)cc1	x	x	x	10.3	9.9	1.2	4.1	-4.0	10.4	-4.5
N=c1c(C(=O)NCc2ccccc2)cc2c(=O)n3ccccc3nc2n1Cc1ccco1	71.4	3.1	16.9	-2.0	u	1.3	8.1	12.0	-6.6	-1.4
Cc1ccc(-n2ncc3c(=O)n(CC(=O)N4CCCCCC4)cnc32)cc1	x	x	x	-5.6	2.1	-1.7	2.8	-7.0	0.4	-0.9
CN(C)CCCO/N=C(\c1ccccc1)c1ccncc1	x	x	x	5.4	x	0.1	21.3	6.2	-11.0	-3.2
Cn1c2ccccc2c2c(C(=O)N3CCN(c4ccc(F)cc4)CC3)cn(C3CCCC3)c(=O)c21	x	x	x	-2.0	-17.8	-1.6	44.8	12.3	-0.6	1.3

In the list so far, 2 have a nitro group on carbon.
SMILES	rRNA inh HTS	rRNA inh HTS OD600	rRNA inh HTS RFP	LANA-H2A inh	ALR inh	Bfl-1 A1 inh	T cruzi repl	B2AR ag	Beta apoptosis	Calb FLC
CCOC(=O)C(C)Sc1nnc(NC(=O)c2cccc([N+](=O)[O-])c2C)s1 (configuration not stated)	x	x	x	-1.6	-4.6	0.2	-8.2	5.0	1.2	-4.5
Cc1ccc(N2NC(=O)/C(=C\c3cc4c(cc3[N+](=O)[O-])OCO4)C2=O)cc1C	x	x	x	4.7	94.0*	-0.2	7.4	13.3	3.0	1.9

Other structures follow:
SMILES	rRNA inh HTS	rRNA inh HTS OD600	rRNA inh HTS RFP	LANA-H2A inh	ALR inh	Bfl-1 A1 inh	T cruzi repl	B2AR ag	Beta apoptosis	Calb FLC
O=C(COc1ccc(Cl)cc1[N+](=O)[O-])N1CCCCC1	13.7	-5.4	-0.7	1.4	-4.8	-0.3	-8.9	-7.6	-3.2	-21.1
NNC(=O)CC(=O)NC1(Cc2ccc(O)cc2)CCCCC1	1.5	2.5	1.0	-1.8	8.9	1.3	-2.6	0.7	-3.3	-1.8
C=C1SC(=Nc2ccccc2Cl)N(C(=O)c2sc3ccccc3c2Cl)C1(C)C	5.0	-9.1	12.3	-1.0	-1.4	0.6	-1.1	-0.2	5.9	-11.8
COc1ccc(CNC(=O)C2CCN(S(=O)(=O)c3ccc4c(c3)CC(C)N4C(C)=O)CC2)cc1 (configuration not stated)	-6.3	-5.7	2.7	2.4	-4.8	-0.1	-6.4	-4.0	2.6	-5.6
O=C(CCC(=O)Nc1ccccc1Cl)NNS(=O)(=O)c1ccc(Cl)cc1	4.0	8.8	-1.4	2.3	9.2	0.5	x	2.2	-6.4	110.6*
CCCOC(=O)/C(C)=N\NC(=O)c1ccco1	x	x	x	4.4	-6.0	0.4	-10.5	-14.2	-1.7	-1.7
COc1ccc(N2C(=O)c3ccccc3NC2c2ccc(OC)c(Cn3cc([N+](=O)[O-])cn3)c2)cc1 (configuration not stated)	3.9	2.7	-5.6	-0.5	1.5	-1.6	-2.1	9.3	-0.8	-2.1
Cc1nc2scc(-c3cccs3)c2c(=O)o1	x	x	x	2.9	-7.2	1.0	-5.5	-2.0	2.9	-2.9
O=C(CC(C(=O)O)C1CCCO1)NCCc1ccc2c(c1)OCO2 (configuration not stated)	x	x	x	2.2	-14.7	-0.4	1.9	2.4	3.6	-2.7
Cc1ccc(C)c(-n2cc(CN3CCCN(C=O)CC3)c(-c3ccccc3)n2)c1	9.5	1.3	8.4	3.8	-3.4	0.2	-13.7	-9.6	-6.2	-8.2
S=c1[nH]c(-c2ccccc2)cn1-c1ccccc1	-2.4	-1.6	0.4	4.0	96.7*	0.2	-1.5	-18.0	-2.1	-23.7
COc1ccc(CNC(=O)NC2CCCCC2)cc1	5.7	5.9	2.3	-1.5	x	-0.2	-11.5	-4.4	3.4	-4.4
COc1ccc(C2=NCN(c3ccc(C)cc3)C(=S)N2)cc1	x	x	x	-1.9	-10.0	-0.1	-19.3	-1.0	1.6	-1.4
O=C(O)/C=C\C(=O)Nc1ccc(Oc2ccc(Br)cc2)cc1	-15.1	-14.1	-7.1	4.0	74.2	-0.9	-15.6	11.0	4.5	-1.4
CCOc1ccc(C(=O)NCC(=O)OC(C)C(=O)NCc2ccco2)cc1OCC (configuration not stated)	x	x	x	-4.5	0.0	-0.4	-6.8	-5.9	2.3	4.4
CCOCCCn1c(=NC(=O)c2ccco2)c(C(=O)OCC)cc2c(=O)n3cccc(C)c3nc21	x	x	x	-0.5	-2.1	-0.6	21.4	-5.6	-4.7	-11.7
CCc1ccc(C(=O)COC(=O)c2cccs2)cc1	x	x	x	-2.8	0.7	0.5	-13.8	-10.0	3.1	-18.0
CCOC(=O)N1CCN(C(=O)c2cn(CC)c3ccc(S(=O)(=O)N4CCCCC4)cc3c2=O)CC1	9.5	11.8	-0.1	-4.7	x	1.5	-5.1	3.9	4.8	-0.5
CSc1cccc(N=C2C(=O)Nc3ccccc32)c1	3.8	7.1	-3.3	-0.8	10.1	1.0	-4.3	-1.9	-2.8	0.9
CCCCN(C)C(=O)CCCc1c[nH]c2ccccc12	x	x	x	-0.8	x	-0.5	5.9	-0.6	-9.6	3.0
CCN(CC)C(=O)CSc1nc2cc3c(cc2c(=O)n1CCCC(=O)NCCc1ccc(OC)c(OC)c1)OCO3	0.4	-5.1	-2.2	-5.4	-22.7	-0.1	22.0	1.3	-7.3	-0.9
Cc1ccc2cc3c(NC(=O)c4ccco4)nn(CC(C)C)c3nc2c1	x	x	x	6.4	3.5	0.1	15.9	12.5	2.1	6.6
Cc1c(N=Cc2cc3c(cc2[N+](=O)[O-])OCO3)cccc1[N+](=O)[O-]	6.8	8.4	6.6	1.5	31.6	1.3	-12.7	-4.8	-4.3	8.6
O=C(CNC(=O)/C=C/c1ccccc1)N=Nc1c(O)n(Cc2ccccc2)c2ccccc12	7.8	13.3	-2.5	2.5	1.5	-0.1	17.6	x	2.7	-9.7
Cc1ccc(Cl)c(OCC(=O)Nc2ccc3c(c2)OCCO3)c1	x	x	x	-5.0	-1.8	-4.6	11.0	-5.0	-1.9	-20.0
O=C(CN1C(=O)NC2(CCCC2)C1=O)NCc1cccc(Cl)c1	6.9	19.2	2.8	0.9	64.5	0.5	x	-0.4	2.6	x

This is a subset; rates above refer to the full screens.
